Screening data as filed in PubChem BioAssay.
UUG fidelity – modulators of yeast start codon fidelity, primary screen, whole organism, S. cerevisiae, single point, plate reader. S. cerevisiae UUG-firefly luciferase reporter, luminescence/redox ratio. activity score, % at 18.7 µM. 0.13% of 350,000 active;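 active means replicate mean at a twofold rise or more, about +100% in these data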;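 further: firefly luciferase made from a UUG start codon reports start codon fidelity; reporter light over untreated wells divided by growth signal over untreated wells; some hits fall short of that in this replicate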
MT1-MMP act inh – blockers of MT1-MMP proenzyme processing, primary screen, HT1080 RFP-PRO-GFP cells, GFP/RFP fluorescence | GFP/RFP ratio fluorescence, overnight; percent of plate control window, DMSO zero | GFP/RFP ratio change, % at 20 µM | 0.061% of 360,000 active;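 active means GFP/RFP ratio change of at least 30% with cell ATP level not reduced by more than half and red fluorescence within 50% of control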; further: strong numbers were not always called active
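Assay system: RFP-PRO-GFP reporter HT1080 cells; read-out basis: GFP/RFP fluorescence ratio; benchmarks: DMSO wells and RFP-L50D-GFP cells; doses: 20 µM single dose, 1% DMSO; schedule: overnight cell settling, then overnight compound exposure, 37 °C, 5% CO2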
HIV Env fusion – inhibitors of HIV-1 Env-driven cell-cell fusion, primary screen, HeLa-JRFL effector, CEM21 target cells, luciferase; 1.1% of 360,000 active; inhibition, % at 12.3 µM;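 active means mean replicate inhibition score of at least 50 and every replicate individually at or above 50; inconclusive means only one of the two criteria met; inactive means mean below 50 and not all replicates reaching 50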;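 further: 0% = plate neutral controls and 100% = maraviroc near 300 nM; one replicate is shown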
CSC inhib – cancer stem cell viability inhibitors, primary screen, luminescence. inhibition, % at 7.5 µM. 1.1% of 300,000 active. cancer stem cell-like cells viability;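 active means mean at 75% or more and at least half the replicates too; inconclusive means mean and replicates disagree; tested in HMLE shEcad cells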;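 further: 0% = median of negative and 100% = median of positive control wells; the first replicate is given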
eIF4H inh – human eIF4H binding inhibitors, primary screen, translation initiation inhibitor project, biochemical, uHTS, fluorescence polarization; AID 2012, 2009; Eukaryotic translation initiation factor 4H (Homo sapiens), Q15056; inhibition, % at 35 µM; eIF4H fluorescence polarization binding assay; 0.94% of 290,000 active;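 active means 50% or more with normal probe brightness, or confirmed in later tests; inconclusive means above 50% with abnormal brightness, or retests that disagree; inactive means below 50% or failed in later tests; about a fifth of its hits are not listed in these tables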;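 further: calls also rest on retests at 20 µM and on dose response follow-up; 0% = protein and probe with vehicle and 100% = probe without protein; strong numbers were not always called active; many hits fall short of the cut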
PABP polyA inh – PABP poly(A) RNA binding inhibitors, primary screen, biochemical, fluorescence polarization, uHTS | inhibition, % at 35 µM | 1% of 290,000 active | AID 2014, 2009;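 active means 50% or more with normal probe brightness, or confirmed in later tests; inconclusive means above 50% with abnormal brightness, or retests that disagree; inactive means below 50% or failed in later tests; about a fifth of its hits are not listed in these tables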;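 further: calls also rest on retests at 20 µM and on dose response follow-up; controls were probe without protein and protein plus probe with vehicle; some compounds called inactive have numbers as strong as hits; many hits fall short of the cut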
Target sequence (P11940 whole entry, looked up): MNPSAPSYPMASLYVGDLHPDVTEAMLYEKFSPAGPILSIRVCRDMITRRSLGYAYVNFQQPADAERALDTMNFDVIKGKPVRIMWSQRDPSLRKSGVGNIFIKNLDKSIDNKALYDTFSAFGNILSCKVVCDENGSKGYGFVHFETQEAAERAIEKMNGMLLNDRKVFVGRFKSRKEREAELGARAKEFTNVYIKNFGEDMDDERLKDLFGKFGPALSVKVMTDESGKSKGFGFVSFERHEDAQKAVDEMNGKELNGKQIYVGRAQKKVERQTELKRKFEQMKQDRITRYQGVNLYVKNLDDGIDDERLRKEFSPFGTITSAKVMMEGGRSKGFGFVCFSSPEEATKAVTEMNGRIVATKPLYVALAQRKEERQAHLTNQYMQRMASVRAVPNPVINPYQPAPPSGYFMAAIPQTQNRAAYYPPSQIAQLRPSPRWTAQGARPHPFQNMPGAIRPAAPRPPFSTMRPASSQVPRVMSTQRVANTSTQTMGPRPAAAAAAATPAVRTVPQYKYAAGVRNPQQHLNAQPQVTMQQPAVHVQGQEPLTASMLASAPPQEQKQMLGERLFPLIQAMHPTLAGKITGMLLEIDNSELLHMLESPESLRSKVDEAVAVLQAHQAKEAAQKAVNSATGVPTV
Rce1 inhib – yeast Rce1p protease inhibitors, primary screen, biochemical, fluorescence, cell-free homogeneous. yeast membranes, quenched prenylated peptide cleavage fluorescence. calls only. 0.27% of 290,000 active. CAAX prenyl protease 2 (Saccharomyces cerevisiae (strain ATCC 204508 / S288c)), Q03530. AID 2563, 2010;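 active means fall in fluorescence gain of 50% or more versus controls, with final raw signal at or below 3038400; inconclusive means same 50% fall but final raw signal above 3038400; inactive means fall in fluorescence gain under 50%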;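 further: plate controls were neutral control wells for no effect and wells lacking membranes for full effect; tested at 10 µM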
Target sequence (Q03530 whole entry, looked up): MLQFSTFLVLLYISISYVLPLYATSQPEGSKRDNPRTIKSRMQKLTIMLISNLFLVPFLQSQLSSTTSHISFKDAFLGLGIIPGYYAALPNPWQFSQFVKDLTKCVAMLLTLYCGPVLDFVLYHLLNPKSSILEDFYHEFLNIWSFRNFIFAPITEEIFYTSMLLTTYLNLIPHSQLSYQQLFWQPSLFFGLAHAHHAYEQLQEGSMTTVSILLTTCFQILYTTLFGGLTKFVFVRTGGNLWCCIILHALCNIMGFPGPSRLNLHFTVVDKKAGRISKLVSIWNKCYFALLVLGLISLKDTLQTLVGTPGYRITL
eIF4H inh retest – also measured in eIF4H inh; calls as there; inhibition, %; compound at 20 µM; confirmation average;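 mean of two retest wells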
PABP polyA inh retest – also measured in PABP polyA inh; calls as there; inhibition, %; compound at 20 µM; confirmation repeats;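 mean of two retest wells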
MT1-MMP act inh RFP – second read-out of MT1-MMP act inh, no call of its own (marks repeat the call); RFP signal change, %; measured here: RFP expression control read;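 0 = vehicle wells; hits needed this value within 50% of zero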
Starred values were filed as active, the others as inactive; i = inactive; ? = inconclusive; . = no result given; & = joins results of further samples.

SMILES	UUG fidelity	MT1-MMP act inh	MT1-MMP act inh RFP	HIV Env fusion	CSC inhib	eIF4H inh	PABP polyA inh	Rce1 inhib	others
Cc1ccc(/C=C2\Oc3c(ccc(O)c3CN3CCN(C)CC3)C2=O)cc1	.	-8	1	13	-11	?	8	i
C[C@H]1CN=C(Nc2ccccc2)N1CC1CCCCC1	-12	0	-1	15	2	13	15	i
COc1cc(C(=O)Nc2ncccc2C)ccc1OCC(=O)N1CCOCC1	-10	-1	2	.	-16	.	.	.
Cc1cc(C)c2nc(-n3nc(C)cc3N)cc(C)c2c1	.	-2	-1	-43	3	-8	-2	i
O=C(O)c1cccc2cc(-c3ccccc3)oc(=O)c12	-12	2	6	6	4	-2	-1	i
Cc1cc(C)c(NC(=O)CCCSc2nnc(N)s2)c(C)c1	.	-1	-5	0	-2	-10	-9	i
O=C(CCCn1c(=S)[nH]c2cc3c(cc2c1=O)OCO3)N1CCN(c2ccccc2)CC1	.	4	-3	-4	-14	-4	4	i
Cc1ccc(OCC(=O)NC2CCSc3ccccc32)cc1 (stereo unspecified)	-18	-5	-6	-222	-5	.	.	i
CCCCN(C)CCNC(=O)CCn1nc(-c2ccc(C)cc2)ccc1=O	6	4	8	14	-6	-1	4	i
CC(C)c1ccc(C2/C(=C(\O)c3ccc4c(c3)OCCO4)C(=O)C(=O)N2CCN2CCOCC2)cc1 (stereo unspecified)	-17	3	3	4	3	2	0	i
CCC(C(=O)OCC(=O)Nc1c(Cl)cc(Cl)cc1Cl)c1ccccc1 (stereo unspecified)	.	-3	7	-10	14	10	12	.
O=C1CC(Cc2ccccc2)C(=O)N1CCCn1ccnc1 (stereo unspecified)	.	.	.	-10	3	-6	-1	i
CCOC(=O)CNC(=O)c1ccc(C)cc1	-4	-1	6	.	-16	-8	0	i
O=C(Nc1ccccc1N1CCOCC1)C1=COCCO1	0	3	1	-10	-1	.	.	i
COc1ccc(N(C)C(=O)c2ccc3c(Cl)c4c(nc3c2)CCCC4)c(OC)c1	-11	-2	-7	-2	29	-17	-2	i
CCCN1C2=NCCCN2c2ccccc21	-14	3	0	-74	-10	1	6	i
NC(=O)CC[C@H](NC(=O)OCc1ccccc1)C(=O)OCc1ccc(Cl)cc1	.	1	6	-4	0	5	-4	i
COc1ccccc1C1(CC(=O)Nc2nccs2)CCOC(C(C)C)C1 (stereo unspecified)	.	-3	-9	27	-10	-3	7	i
CN=c1scc(-c2ccccc2F)n1/N=C(\C)c1cccnc1	.	-1	-15	-151	11	4	-6	i
O=C(OCC(=O)N1CCN(C(=O)c2ccco2)CC1)c1c(Cl)cccc1Cl	-9	0	2	1	-4	.	.	.
Cn1ccc2c(-c3ccc4[nH]ccc4c3)cc3c(c21)C1CCC3O1 (stereo unspecified)	-17	-1	-2	6	.	.	.	.
COc1ccc2[nH]c(-c3ccc(C)cc3)cc(=O)c2c1	-28	-3	-9	.	35	-4	3	i
CCN(Cc1ccccc1)C(=O)CCc1nnc(CCCc2ccccc2)o1	0	-4	-5	-9	0	-4	-1	i
C[C@]1(C(=O)NCCc2c[nH]c3ccccc23)C=C[C@@H](Cc2ccccc2)N1C(=O)c1ccccc1	-10	-4	0	18	-10	2	13	i
CC(C)CC(=O)c1c[nH]c(C(=O)NCCc2ccccn2)c1	-11	4	0	-11	-17	-6	0	i

(list continues)
SMILES	UUG fidelity	MT1-MMP act inh	MT1-MMP act inh RFP	HIV Env fusion	CSC inhib	eIF4H inh	PABP polyA inh	Rce1 inhib	others
CC(Sc1nnc(N)s1)C(=O)Nc1ccc2c(c1)OCCO2 (stereo unspecified)	-19	-1	0	-2	-8	-14	-10	.
COc1cccc(Oc2ccc(S(=O)(=O)N3CCOCC3)cc2[N+](=O)[O-])c1	-1	6	-1	-6	5	.	.	.
CCN(Cc1ccc2c(c1)OCO2)C(=O)CSc1ncnc2sccc12	.	-1	2	-1	-1	.	.	.
O=C(CSc1ccc(C(F)(F)F)cn1)Nc1ccccc1	-2	0	4	11	0	-11	-2	i
NNC(=S)Nc1ccc(Cl)cc1	-20	-6	-1	-2	4	-1	-9	i
COCCNC(=O)/C(C#N)=C/c1c(N2CCN(c3ccccc3)CC2)nc2c(C)cccn2c1=O	-10	-1	1	27	-8	28	37	i
Cc1ccnc(NS(=O)(=O)c2ccc(N)cc2)n1	-5	-1	2	.	-13	-10	-1	i
COc1ccccc1-n1c(CNC(=O)c2ccco2)nnc1SCC(=O)Nc1nccs1	-17	2	4	-12	3	3	3	i
CCC(=O)N(C)C[C@@H]1Oc2ncc(Br)cc2C(=O)N([C@@H](C)CO)C[C@H]1C	4&-20	3	3	10	.	.	.	.
CCc1cc(CNC(=O)C2CCC(=O)N(Cc3ccc(Cl)cc3)C2)on1 (stereo unspecified)	-14	1	3	2	-1	-8	-6	i
N#CCCn1c(Cl)nc2ccccc21	-12	-6	-5	.	-3	-3	-7	i
CC(=O)Nc1ccc(N2CCC(C)CC2)c([N+](=O)[O-])c1	.	10	5	-14	2	-5	2	i
COc1ccc(CC(N)c2csc(NC(=O)Nc3ccccc3C(C)C)n2)cc1 (stereo unspecified)	-2	-4	-3	12	.	.	.	.
CCCN1Cc2cccc(C(=O)NC(CC(=O)OCC)c3ccc(OCC)c(OC)c3)c2C1=O (stereo unspecified)	.	3	3	8	.	5	10	i
COc1ccc(-c2cc(NCCc3ccncc3)n3ncnc3n2)cc1	-13	-3	-15	-21	-5	2	3	i
COc1ccc(OCCSc2nnc(-c3ccoc3C)n2C)cc1	-12	7	3	.	-6	-4	1	i
Cc1ccc(NC(=S)N(CCN2CCOCC2)Cc2ccccc2F)cc1Cl	-1	5	3	12	-14	8	17	i
C=CCNS(=O)(=O)c1cc2c3c(c1)CCN3C(=O)CC2	-5	-1	-5	-1	-5	-6	2	i
O=C(NC(Cc1ccccc1)C(=O)O)/C(=C/c1ccc(Cl)cc1)NC(=O)c1ccco1 (stereo unspecified)	6	0	4	-7	4	-11	1	.
CC(C)C(NC(=O)C1CCC(C(C)(C)C)CC1)C(=O)NCCc1ccc(S(N)(=O)=O)cc1 (stereo unspecified)	-2	4	-1	-4	-11	-11	8	i
O=C(CN1C(=O)S/C(=C\C=C\c2ccccc2)C1=O)N1CCOCC1	-16	6	1	-13	-14	-6	3	i
Cc1nc([N+](=O)[O-])c(NCCCO)n1Cc1ccccc1	.	4	10	-14	2	-3	3	.
CC1(C(=O)CSc2n[nH]c(-c3ccccc3Cl)n2)CCC(=O)O1 (stereo unspecified)	.	.	.	.	.	-3	8	i
Cc1ccsc1/C=N/NC(=O)C1C(=O)NCC1c1ccccc1 (stereo unspecified)	.	.	.	14	-9	-10	1	i
Cc1cc2nc(C)c(Cc3ccccc3)c(=O)n2[nH]1	-27	1	5	.	0	1	-2	i

Structures listed so far containing an NH in an aromatic ring (seven):
SMILES	UUG fidelity	MT1-MMP act inh	MT1-MMP act inh RFP	HIV Env fusion	CSC inhib	eIF4H inh	PABP polyA inh	Rce1 inhib	others
O=C(CCCn1c(=S)[nH]c2cc3c(cc2c1=O)OCO3)N1CCN(c2ccccc2)CC1	.	4	-3	-4	-14	-4	4	i
Cn1ccc2c(-c3ccc4[nH]ccc4c3)cc3c(c21)C1CCC3O1 (stereo unspecified)	-17	-1	-2	6	.	.	.	.
COc1ccc2[nH]c(-c3ccc(C)cc3)cc(=O)c2c1	-28	-3	-9	.	35	-4	3	i
C[C@]1(C(=O)NCCc2c[nH]c3ccccc23)C=C[C@@H](Cc2ccccc2)N1C(=O)c1ccccc1	-10	-4	0	18	-10	2	13	i
CC(C)CC(=O)c1c[nH]c(C(=O)NCCc2ccccn2)c1	-11	4	0	-11	-17	-6	0	i
CC1(C(=O)CSc2n[nH]c(-c3ccccc3Cl)n2)CCC(=O)O1 (stereo unspecified)	.	.	.	.	.	-3	8	i
Cc1cc2nc(C)c(Cc3ccccc3)c(=O)n2[nH]1	-27	1	5	.	0	1	-2	i

Grouped by structure, those above containing a COOH group
SMILES	UUG fidelity	MT1-MMP act inh	MT1-MMP act inh RFP	HIV Env fusion	CSC inhib	eIF4H inh	PABP polyA inh	Rce1 inhib	others
O=C(O)c1cccc2cc(-c3ccccc3)oc(=O)c12	-12	2	6	6	4	-2	-1	i
O=C(NC(Cc1ccccc1)C(=O)O)/C(=C/c1ccc(Cl)cc1)NC(=O)c1ccco1 (stereo unspecified)	6	0	4	-7	4	-11	1	.

(cont.)
SMILES	UUG fidelity	MT1-MMP act inh	MT1-MMP act inh RFP	HIV Env fusion	CSC inhib	eIF4H inh	PABP polyA inh	Rce1 inhib	others
Cc1ccc(Cn2c(=N)c(C(=O)NC3CCCC3)cc3c(=O)n4ccccc4nc32)cc1	-8	-11	-7	.	-2	-6	-8	i
COc1ccc(C(=O)NC(=S)Nc2cccc(NC(=O)c3ccco3)c2)cc1[N+](=O)[O-]	-17	1	3	14	-12	8	66	i	eIF4H inh retest=-6;PABP polyA inh retest=7
O=C(NCc1cccnc1)C12CC3CC(CC(Cl)(C3)C1)C2	-10	-1	3	3	4	3	21	i
O=C(NCc1ccco1)C1CCN(C(=O)c2cc3sccc3n2Cc2ccc(F)cc2)CC1	-9	2	-13	.	-9	4	2	i
CCOC(=O)c1ccc(NC(=O)CSc2nnc(-c3ccncc3)n2C)cc1	-23	4	2	5	-11	-5	-5	i
CCOc1ccc(S(=O)(=O)N2CCC(C(=O)OCc3ccc(OC)cc3)CC2)cc1	-18	3	-5	.	-16	.	.	i
NC(=O)N=Nc1c(O)n(Cc2ccccc2)c2ccc(Br)cc12	-9	5	-1	6	-10	-1	-5	i
CC1CCN(C(=O)c2ccccc2NC(=O)c2cccs2)CC1	-6	-3	1	-5	-5	-8	-6	i
CCc1n(CC(O)COCc2ccccc2)c2ccccc2[n+]1C (stereo unspecified)	.	-5	-4	4	-6	6	2	i
Nn1c(SCC(=O)Nc2ccc(N3CCOCC3)cc2)nnc1C1CC1	-2	1	3	.	0	.	.	.
O=C1CCC(C(=O)N2CCCC(N3CCN(c4cccc(C(F)(F)F)c4)CC3)C2)=NN1 (stereo unspecified)	9	-2	4	5	10	-8	5	i
Cc1nn(S(=O)(=O)N(C)C)c(C)c1CN1C(=O)c2ccccc2C1=O	5	3	-2	.	-6	6	-5	i
O=C(Cc1cccs1)Nc1ccc(S(=O)(=O)N2CCCC2)cc1	-41	-4	1	4	.	20	8	i
CCC(C)n1c(SCC(=O)NC(=O)Nc2ccc3c(c2)OCCO3)nc2ccccc2c1=O (stereo unspecified)	-4	-11	-10	.	10	-12	-1	i

Two entries drawn at random from those above, as already listed:
SMILES	UUG fidelity	MT1-MMP act inh	MT1-MMP act inh RFP	HIV Env fusion	CSC inhib	eIF4H inh	PABP polyA inh	Rce1 inhib	others
Cc1ccc(Cn2c(=N)c(C(=O)NC3CCCC3)cc3c(=O)n4ccccc4nc32)cc1	-8	-11	-7	.	-2	-6	-8	i
O=C(Cc1cccs1)Nc1ccc(S(=O)(=O)N2CCCC2)cc1	-41	-4	1	4	.	20	8	i
